Bioassay records deposited in PubChem by National Center for Advancing Translational Sciences (NCATS).
hNpr1 antagonist: human Npr1 receptor antagonism; Potency, µM (titrated, usually from 46.3 µM), for inactives: at the highest dose activity change, negative = inhibition, hits mostly inhibitors; P16066; HEK293 hNpr1 GloSensor cGMP, ANP-stimulated luminescence; 76,000 tested, 1.6% active; active = well fitted inhibition curve with a large enough effect; inconclusive = small, poorly fitted or top-dose-only effect; inactive = no such curve, though single readings can be large or run the other way;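 further: nearly all actives have a fitted effect of over 60% in size; nearly all hits also lower the signal before the agonist is added; a reference antagonist and vehicle were the controls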
Target sequence (P16066 whole entry, looked up): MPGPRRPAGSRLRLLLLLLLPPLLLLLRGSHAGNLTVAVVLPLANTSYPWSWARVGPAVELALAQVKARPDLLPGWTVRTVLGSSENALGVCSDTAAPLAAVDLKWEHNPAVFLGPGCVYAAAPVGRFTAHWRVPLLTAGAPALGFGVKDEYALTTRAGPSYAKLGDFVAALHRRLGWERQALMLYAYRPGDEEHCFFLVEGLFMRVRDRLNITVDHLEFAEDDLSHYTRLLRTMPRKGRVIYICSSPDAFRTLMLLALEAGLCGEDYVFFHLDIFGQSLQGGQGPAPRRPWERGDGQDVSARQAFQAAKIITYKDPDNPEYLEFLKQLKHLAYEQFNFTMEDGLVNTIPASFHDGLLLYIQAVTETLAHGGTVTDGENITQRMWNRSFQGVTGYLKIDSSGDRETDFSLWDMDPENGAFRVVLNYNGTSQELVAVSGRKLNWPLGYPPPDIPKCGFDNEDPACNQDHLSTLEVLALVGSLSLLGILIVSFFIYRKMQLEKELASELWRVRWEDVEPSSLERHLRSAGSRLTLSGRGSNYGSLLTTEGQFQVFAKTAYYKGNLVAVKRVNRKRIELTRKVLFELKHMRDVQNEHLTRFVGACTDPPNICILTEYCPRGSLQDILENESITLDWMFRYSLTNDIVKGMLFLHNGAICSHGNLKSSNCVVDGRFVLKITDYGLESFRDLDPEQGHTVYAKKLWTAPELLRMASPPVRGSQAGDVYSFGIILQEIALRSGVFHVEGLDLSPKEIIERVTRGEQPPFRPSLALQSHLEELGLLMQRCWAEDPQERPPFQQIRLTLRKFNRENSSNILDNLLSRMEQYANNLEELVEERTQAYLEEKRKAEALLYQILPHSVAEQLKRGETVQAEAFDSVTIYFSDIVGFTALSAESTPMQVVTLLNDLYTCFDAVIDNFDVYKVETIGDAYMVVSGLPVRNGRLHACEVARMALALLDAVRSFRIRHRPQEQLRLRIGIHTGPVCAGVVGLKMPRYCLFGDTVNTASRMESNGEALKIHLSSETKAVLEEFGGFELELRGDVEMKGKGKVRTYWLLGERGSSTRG
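Compound pre-incubated 30 min at room temperature on GloSensor-loaded HEK293 cells stably carrying hNpr1 and the pGS-40F cGMP biosensor. Stimulation uses hNppA at 0.1 nM final; luminescence is taken at baseline and 20 min post-agonist.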
An asterisk follows results filed as active; ? = inconclusive; & = joins results of further samples; [ ] = another dose, or the depositor's remark. On the % scale 0 is the no-effect control and ±100 the full control effect; potency means the concentration at half of the fitted maximal effect. These rows are one share of the data; count on the stated rates, not on these rows.

Structure | hNpr1 antagonist
CN(C)Cc1nnc(C2CCN(C(=O)Nc3cccc(C#N)c3)CC2)n1C | 0%
Cc1ccc(C)c(C(=O)N(C)CC2CCOCC2)c1 | -2%
CCNC(=O)N1CCCC(c2noc(COc3ccccc3)n2)C1 (stereo not drawn) | -25%
CC1CCC2(CC1)NC(=O)N(CC(=O)Nc1ccc(C(C)C)cc1)C2=O (stereo not drawn) | 4%
COc1ccc2c(c1)CN(C(=O)NCc1ccccc1)CC[C@H]1COC(=O)N21 | 2%[70.6 µM]
CCn1c2c(c(=O)n1Cc1ccccc1)CCN(C(=O)CCc1ccccn1)C2 | 4%[70.6 µM]
O=C1CC(c2ccccc2)N(C(=O)CNC(=O)c2cnccn2)CCCCCCN1 (stereo not drawn) | 3%
Cc1cc(CC(C)NC(=O)Cc2c(C)[nH]c3ccccc23)n[nH]1 (stereo not drawn) | 9%
CCC(=O)N1CCCN(S(=O)(=O)c2ccccc2)CCC(=O)NCC1 | 1%
Cc1cc(=O)n(CC(=O)Nc2ccc(F)c(Cl)c2)c(N2CCc3ccccc3C2)n1 | 0%
COc1ccc(OC)c(NC(=O)Cn2ccn3nc(-c4ccccc4)c(CO)c3c2=O)c1 | -9%
CC(C)n1cnnc1-c1nn(C)c2c1CN(C(=O)CC1CCCC1)CC2 | 3%

The listing continues.
Structure | hNpr1 antagonist
COC1CCN(c2cc(-c3cccc(C(F)(F)F)c3)nc3c(C)noc23)CC1 | -2%[70.6 µM]
COCCN1Cc2ccc(NCC(C)C)nc2C(C)(C(=O)NCc2cccnc2)C1 (stereo not drawn) | -7%[70.6 µM]
c1ccc(CN2CCC[C@H]2c2nc(-c3ccnc(N4CCOCC4)c3)no2)nc1 | -6%[70.6 µM]
COc1ccc(C(=O)NCCC2CCN(C(=O)Nc3ccc(F)cc3F)CC2)cc1OC | -3%
COCCC(=O)N[C@@H]1CN(c2ccncn2)C[C@H]1CO | 7%
Cc1cnc(CC2CCCN(C(=O)c3ccn[nH]3)C2)n1Cc1ccccc1 (stereo not drawn) | 2%
CC(C)NC(=O)N1CCOc2ccc(CCC(=O)NCCc3cccnc3)cc2C1 | -3%
COc1ccc(-c2nocc2CCC(=O)NCCc2ccc(S(N)(=O)=O)cc2)cc1 | -3%
CN(CC1CCOC1)C(=O)Nc1cccc(Cl)c1F (stereo not drawn) | 6%
Cc1nc(-c2ccc(Cl)cc2)n(Cc2ccc(F)cc2F)c(=O)c1CCO | 1%
NC(=O)C1CCN(C(=O)C2CCCN(S(=O)(=O)c3ccccc3)CCC(=O)NCC2)CC1 (stereo not drawn) | -4%
CCNC(=O)C1C(c2cccc(NC(=O)c3ccc(F)cc3)c2)OC(=O)N1Cc1cccc(Cl)c1 (stereo not drawn) | -8%

(next part)
Structure | hNpr1 antagonist
CCN1c2cc(C(=O)Nc3ccccc3)ccc2C(=O)N2CCCCCC21 (stereo not drawn) | -3%
O=C(c1ccc(F)cc1)N1CCCC(c2nn(-c3cccc(Cl)c3)c(=O)[nH]2)C1 (stereo not drawn) | 0%
CCNC(=O)N1C[C@@H]2OCC(=O)N(CC3CC3)[C@@H]2C1 | 0%[70.6 µM]
O=C1CO[C@H]2CCN(Cc3ccncc3Cl)CC[C@@H]2N1c1ccccc1 | -6%[70.6 µM]
CSc1ccc(C(=O)N2CCC(n3nccc3NC(=O)CC(C)C)CC2)cc1 | 0%
COc1cccc(CN(C)CC(C)N2CCOCC2)c1O (stereo not drawn) | -3%
Cn1ccc2c(C(=O)NCc3cccnc3)nc(-c3ccc(N4CCOCC4)cc3)cc21 | -11%[70.6 µM]
Cc1cnc(CC2CCN(C(=O)c3cccc4[nH]ccc34)CC2)n1CC1CC1 | -1%
Cn1nccc1C(=O)NC1CCCN(c2cc(N3CCCC3)ncn2)C1 (stereo not drawn) | -1%
CCn1ncc(N2CCC(NC(=O)Cc3ccc(OC)cc3)CC2)cc1=O | -16%
CCOC1CCOC2(CCN(C(=O)c3ccn(CC)n3)CC2)C1 (stereo not drawn) | 1%
Cn1cc(CN2C[C@H](C(=O)Nc3cccc(F)c3)C[C@H]2c2cccc(C(F)(F)F)c2)cn1 | -3%

Later entries.
Structure | hNpr1 antagonist
CC(C)CCN1CCC(Oc2ccc(C(N)=O)cn2)CC1 | 0%
O=C(C1CC1)N1CCC(c2nc(-c3ccc4nc[nH]c4c3)no2)CC1 | 1%
Cc1ccccc1NC(=O)Nc1ccnn1C1CCN(C(=O)CCN)CC1 | 3%
CCc1noc(-c2cccn3c(CNC(=O)COc4cccc(C)c4)nnc23)n1 | -10%
O=C(c1ccc2c(c1)OCO2)N1CCC2(CC1)CC(c1cccc(C(F)(F)F)c1)=NO2 | -29%
CCn1nc(-c2ccccc2S(=O)(=O)NC(C)(C)C)nc1N(C)C | 1%
CC(C)(C)C(=O)N1CCC2(C1)C(=O)N(CCc1ccccc1)c1ccccc12 (stereo not drawn) | 0%&-1%
CN(C)C[C@@H]1CN(C2CCOCC2)C[C@H]1NC(=O)c1cc2ccccc2[nH]1 | -19%
O=C(NCC1(O)CCCN(C(=O)c2cccs2)CC1)N1CCOCC1 (stereo not drawn) | 5%
CC1CCCN1Cc1c(C(=O)N2CCCCCCC2)nc2sccn12 (stereo not drawn) | 1%
C=CCNC(=O)CCc1c(C)nn(-c2ccc(F)cc2)c1Oc1cccc(F)c1 | -18%
Cn1c2c(c3ccccc31)CN(C(=O)NC1CCCCC1)CC2 | -7%

Next results follow:
Structure | hNpr1 antagonist
CN(Cc1ccccc1)C(=O)c1ccc2c(c1)NC(C)(CCCCN1CCOCC1)CO2 (stereo not drawn) | 2%[70.6 µM]
Cc1nn(-c2ccccc2)c(Oc2ccc(F)cc2F)c1CCC(=O)N1CCSCC1 | -23%
O=C1NCCCCCCN(Cc2ccncc2)[C@@H]2CN(C(=O)c3cccs3)CC[C@@H]12 | 5%
O=C(NCC1CCCCC1)C1CCN(C(=O)c2ncn3c2COC(c2ccc(F)cc2)C3)CC1 (stereo not drawn) | 4%
CN(CC(N)=O)C(=O)[C@@H]1[C@@H](NC(=O)Nc2ccc(F)cc2F)CCN1C(=O)CC(C)(C)C | 7%
CCn1nccc1C(=O)N1CC[C@H]2C(=O)NCCCCCCN(Cc3ccncc3)[C@@H]2C1 | 3%
CCc1ccc(S(=O)(=O)N2CCC(n3cnnc3CCOC)CC2)cc1 | 2%
CCn1ccc(C(=O)NCCc2noc(-c3ccncc3)n2)n1 | -1%
CCc1cccc(NC(=O)C2CCCCC(=O)N2)c1 (stereo not drawn) | -3%
CCC1=C(C(=O)OC)C(c2ccc(C)cc2)N2C(CC(=O)N3CCCC3)=CSC2=N1 (stereo not drawn) | -19%
O=C1N(C2CCOCC2)C[C@H]2CN(Cc3ccccc3F)CCN12 | -7%[70.6 µM]
COCc1nn(CC(=O)N(C)Cc2nccs2)c(=O)n1-c1ccccc1 | -1%

Another view of four compounds above.
COCc1nn(CC(=O)N(C)Cc2nccs2)c(=O)n1-c1ccccc1
  hNpr1 antagonist: -1%

CN(CC(N)=O)C(=O)[C@@H]1[C@@H](NC(=O)Nc2ccc(F)cc2F)CCN1C(=O)CC(C)(C)C
  hNpr1 antagonist: 7%

O=C1NCCCCCCN(Cc2ccncc2)[C@@H]2CN(C(=O)c3cccs3)CC[C@@H]12
  hNpr1 antagonist: 5%

O=C1N(C2CCOCC2)C[C@H]2CN(Cc3ccccc3F)CCN12
  hNpr1 antagonist: -7%[70.6 µM]

Going on with the list.
canonical_smiles,hNpr1 antagonist
Cc1cc(C)cc(C(=O)NC2CCCN(c3cc(-c4ccc(F)cc4)[nH]n3)C2)c1 (stereo not drawn),-10%
CCCn1cnc2c1CN(S(=O)(=O)c1cccc3cccnc13)[C@H](C(=O)OC)C2,1%[70.6 µM]
COc1ccc(Cn2cnc3cccnc32)cc1,0%[70.6 µM]
Cc1cccc(CN2CCc3ncc(C(=O)NCCN4CCNC4=O)n3CC2)c1,-1%[70.6 µM]
CC1(COc2cccnc2)COc2ccc(C(=O)Nc3cccc(Cl)c3)cc2N1 (stereo not drawn),28µM*
Cc1ccccc1C(=O)NCc1nnc2cc(-c3nc(C4CC4)no3)ccn12,-1%
COC(=O)C1=CN(CC(=O)N(C)c2cccc(C)c2)S(=O)(=O)N=C1C,3%
O=C(NC[C@H]1OC[C@@H](N(Cc2ccccc2)Cc2ccccc2)[C@@H]1O)c1ccccc1,1%[70.6 µM]
O=[S+]1([O-])NCC2(CCN(Cc3ccc(F)cc3)C2)Nc2ccccc21 (stereo not drawn),9%
CN1c2cc(C(=O)Nc3ccc(F)c(Cl)c3)ccc2C(=O)N2CCCCC21 (stereo not drawn),0%
CCn1cc(-c2ccc(Cl)cc2)cc1C(=O)NCCOC,0%
COCC(=O)NCCC1CCN(C(=O)Nc2cc(F)ccc2F)CC1,2%
C[C@@H](NC(=O)c1cnccn1)c1onc(-c2ccc(F)cc2)c1C(=O)O,0%[70.6 µM]
Cn1nnnc1C1CCCN(C(=O)CCC2CCCC2)C1 (stereo not drawn),-1%
O=C(Nc1cnc(-c2cccc(Cl)c2)nc1)C1CCCO1 (stereo not drawn),?
CCN(Cc1ccccc1)C(=O)CCC[C@H]1NC[C@@H]2CC1CN(Cc1ccccc1)C2,-18%
CCCNC(=O)c1ccc(S(=O)(=O)NCC2(O)CCCNC2)cc1 (stereo not drawn),-2%
C=CCN1CCN(C(=O)[C@@H]2Cc3c[nH]c4cccc(c34)[C@H](CC(C)C)N2)CC1,0%[70.6 µM]
COCC(=O)NC[C@H]1OC[C@@H](NC2CCC2)[C@@H]1O,1%[70.6 µM]
O=C(c1ccccc1Cl)N1CCCC2(C1)Nc1cccnc1NC2=NC1CCCC1 (stereo not drawn),0%
CC(C)=CC(=O)N[C@H]1C[C@@H](C(=O)N[C@H](Cc2ccccc2)C(N)=O)N(C(=O)C=C(C)C)C1,2%[70.6 µM]
COc1ccc(OC)c(CN2CCNc3cnc(Nc4cccnc4)cc3C2)c1,-14%[70.6 µM]
OC1(c2nc(Nc3ccc(Oc4ccccc4)cc3)n[nH]2)CCOCC1,-6%[70.6 µM]
COCCNC(=O)CCCN1C(=O)COc2ccc(C(=O)COc3cc(C)ccc3Cl)cc21,-17%
COc1cccc(-c2nc(N3CCOCC3)cc3c2CN(C)C3=O)c1,4%[70.6 µM]
C[C@@H]1C(=O)O[C@H]2[C@H]1CC[C@@]1(C)Cc3sc(NC(=O)COCC(=O)O)nc3[C@@H](C)[C@H]21,0%[70.6 µM]
CCn1ncc(N2CCCC(CC(=O)NCc3ccccc3)C2)cc1=O (stereo not drawn),-1%
c1ccc(CN2CC[C@@H]3COCCN(Cc4cccnc4)[C@@H]3C2)cc1,-16%
COc1ccccc1-n1cc(C(=O)NC2CCCN(C3CCCCCC3)C2)cn1 (stereo not drawn),-4%
O=C(c1ccc[nH]c1=O)N1CC(F)(F)C[C@H]1c1nc(C2CC2)no1,5%

Remaining list, next part.
canonical_smiles,hNpr1 antagonist
Cc1cccc(NC(=O)N2C[C@@H](F)C[C@H]2C(=O)N2CCCCC2)c1,4%
Cc1noc(C)c1S(=O)(=O)N1CCCN(S(=O)(=O)c2ccccc2)CCC(=O)NCC1,1%
O=C(C1CCC1)N1CCC(c2noc(C3CC3)n2)C1 (stereo not drawn),-1%
COc1ccc2cc(C(=O)N(C)C3CCc4nn(C)c(=O)n4CC3)[nH]c2c1 (stereo not drawn),-1%
Cc1noc(C)c1-c1cc2cc(CO)oc2c(-c2ccccc2)n1,-2%[70.6 µM]
COc1ccc(-c2nc(C3CC(=O)N(c4ccc(OC)c(OC)c4)C3)no2)cc1F (stereo not drawn),-16%
COc1ccc(-c2cc(N3CCN(C(=O)Cc4ccc(F)cc4)CC3)n[nH]2)cc1,-2%
Cc1ccnn1CC(=O)N1CCOc2c(O)cc(-c3cccc(Cl)c3)cc2C1,-28%
COc1cccc(CN[C@@H]2CCC[C@@H](C(=O)N(C)Cc3cccnc3)CC(=O)N(C)C2)c1,1%
O=C(CC(c1ccc(F)cc1)c1cn(Cc2ccccc2)c2ccc([N+](=O)[O-])cc12)N1CCOCC1 (stereo not drawn),10µM*
COc1ncccc1-c1cc2c(ccn2CC2CCN(C)CC2)c(N2CCOCC2)n1,-13%[70.6 µM]
Cc1noc(C)c1C(=O)N[C@H]1[C@H](O)[C@H](O)C[C@@H]1c1cccnc1,11%[70.6 µM]
Cc1nc(CNC(=O)c2cccc(S(=O)(=O)N3CCC[C@H]3CO)c2)no1,3%
COc1ccc(OCc2nc(C3CN(C(=O)c4n[nH]c5ccccc45)C3)no2)cc1,1%
O=C(CCc1conc1-c1ccccc1F)NCc1cccc(C(F)(F)F)c1,-14%
CS(=O)(=O)N1CCC(C2CCN(C(=O)CN3CCOCC3)C2)CC1 (stereo not drawn),8%
Cc1noc(C)c1S(=O)(=O)NCC1(COc2ccc(C(F)(F)F)cn2)C[C@@H](O)[C@@H](O)C1 (stereo partly drawn),4%
Cc1ccn(CC(=O)N[C@@H]2CN(c3ncccn3)C[C@H]2CO)n1,-12%
Cc1cn2nc(C(=O)Nc3ccc4c(c3)OCCO4)cc2c(N(C)Cc2ccccc2)n1,-1%
CC1=C[C@@H](CNCc2cccnc2)[C@H](C(C)C)C[C@H]1Cc1nnc(-c2ccccc2)o1,-14%[70.6 µM]

Four entries picked at random from the list so far, as already listed:
canonical_smiles,hNpr1 antagonist
Cc1nc(CNC(=O)c2cccc(S(=O)(=O)N3CCC[C@H]3CO)c2)no1,3%
O=C(C1CCC1)N1CCC(c2noc(C3CC3)n2)C1 (stereo not drawn),-1%
COc1ccc(-c2cc(N3CCN(C(=O)Cc4ccc(F)cc4)CC3)n[nH]2)cc1,-2%
COc1ncccc1-c1cc2c(ccn2CC2CCN(C)CC2)c(N2CCOCC2)n1,-13%[70.6 µM]
